Screening results (PubChem BioAssay)
S aureus helic: inhibitors of S. aureus replicative helicase, primary screen, biochemical, fluorescence unwinding readout. purified S. aureus helicase, fluorescence unwinding assay; about half of the hits fall short of the stated cut. inhibition, %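 (tested at about 80 µM)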. 120,000 compounds, 0.05% hits. AID 485395, 2010;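 active means both duplicates at 50% or more, or one of them with a favoured structure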;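 further: 0% = mean of negative control wells and 100% = mean of positive control wells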
MgrA DNA FP: S. aureus MgrA activity modulators, primary screen, biochemical, S. aureus Newman, fluorescence polarization; MgrA-DNA binding; inhibition, %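 (about 10 µg/mL by stock and volumes)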; 84,000 compounds, 0.13% hits;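 active means above 50% in either of two replicates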;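 further: 0% = protein plus DNA without compound and 100% = DNA alone without protein; higher means less MgrA bound to DNA so lower polarization; one replicate is shown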
Starred values were filed as active, the others as inactive; · = no result given; & = joins results of further samples.

Molecule	S aureus helic	MgrA DNA FP
O=C(C1Cc2ccccc2CN1S(=O)(=O)c1cccs1)N1CCCCCC1 (stereo unspecified)	-24	·
CC(C)CCNc1ncnc2c1nc1n2CCCCC1	9	0.0
Cc1nc(C(=O)N/N=C/c2[nH]ncc2Cl)cs1	35	·
COc1ccc(C(c2ccc3cccnc3c2O)N2CCOCC2)cc1 (stereo unspecified)	18	17
O=C(O)CSCC(=O)Nc1ccccc1C(F)(F)F	9	-1.8
CCOc1ccc(N(CC)S(=O)(=O)N2CCCC(C(=O)O)C2)cc1 (stereo unspecified)	-9	·
CC(C)(C)OC(=O)N1CCCC(CN)C1 (stereo unspecified)	15	5.0
Cn1c(-c2ccc([N+](=O)[O-])o2)n[nH]c1=S	·	1.4
COc1ccc(C2=Nn3c(nc4sc5c(c4c3=O)CCCC5)SC2)cc1	·	0.2
COC(=O)c1ccc(CC#N)o1	12	·
CCC(C(=O)N1CCN(CC)CC1)c1ccccc1 (stereo unspecified)	6	1.1
CCC1CN(C(=O)NC2CCCC2)c2ccccc2O1 (stereo unspecified)	0	·
Cc1cc(C)nc(SCC(=O)Oc2cccc(OC(=O)CSc3nc(C)cc(C)n3)c2)n1	-1	·
c1ccc(Cc2nc3ccc4[nH]snc4c3n2)cc1	21	1.5
CC1=Nc2ncnn2C(c2ccccc2)/C1=N\O (stereo unspecified)	11	·
COc1ccc(N2C(=O)CC(N(O)c3ccccc3)C2=O)cc1 (stereo unspecified)	-1	1.9

Profiles, looked up by structure:
Shown for CCC1CN(C(=O)NC2CCCC2)c2ccccc2O1 (stereo unspecified) : S aureus helic: 0; MgrA DNA FP: ·
Shown for CCC(C(=O)N1CCN(CC)CC1)c1ccccc1 (stereo unspecified) : S aureus helic: 6; MgrA DNA FP: 1.1
Shown for COc1ccc(C2=Nn3c(nc4sc5c(c4c3=O)CCCC5)SC2)cc1 : S aureus helic: ·; MgrA DNA FP: 0.2

Laid out differently: results already given
Under each structure – S aureus helic | MgrA DNA FP
> CCC(C(=O)N1CCN(CC)CC1)c1ccccc1 (stereo unspecified)
 : 6 | 1.1
> CC1=Nc2ncnn2C(c2ccccc2)/C1=N\O (stereo unspecified)
 : 11 | ·
> c1ccc(Cc2nc3ccc4[nH]snc4c3n2)cc1
 : 21 | 1.5
> COc1ccc(C2=Nn3c(nc4sc5c(c4c3=O)CCCC5)SC2)cc1
 : · | 0.2
> CCC1CN(C(=O)NC2CCCC2)c2ccccc2O1 (stereo unspecified)
 : 0 | ·

The listing continues:
Molecule	S aureus helic	MgrA DNA FP
Cc1cccc(-n2cnc3cc(C(=O)NCCC4=CCCCC4)ccc32)c1	13	2.7
O=[N+]([O-])c1ccc(N2CCC(n3cccc3)CC2)cc1	·	-0.7
COc1ccc(NCN2C(=O)S/C(=C/c3ccccc3OC)C2=O)cc1Cl	·	0.6
CC(C)c1ccc(NC(=S)NN2CCOCC2)cc1	16	3.5
CCOc1ccc2c(c1)C(=O)c1cc(OCC)ccc1-2	-2	3.3
COc1ccc2cc3c(N)nn(C(=O)Cc4ccc(Cl)cc4)c3nc2c1	14	·
COc1cc(C(=O)O)ccc1OCc1ccccc1	-2	-1.5
O=C(O)c1cccnc1SC1CC(=O)N(C2CCCC2)C1=O (stereo unspecified)	6	2.2
Cc1cc(C)nc(SCCN(C)C)n1	9	·
O=C(COc1ccccc1)OCC(=O)C12CC3CC(CC(C3)C1)C2	6	1.8
FC(F)(F)c1cccc(NCc2cn3cccnc3n2)c1	6	·
CN1C(=O)CCC1(C(=O)O)c1ccccc1 (stereo unspecified)	0	·
N#CCCn1cc(/C=C/C(=O)OCC(=O)c2ccc(Cl)cc2)c(-c2cc3ccccc3o2)n1	0	·
CC1=C(C(=O)OC2CCC(C)C(C)C2)C(c2ccc(Br)cc2)NC(=O)N1 (stereo unspecified)	·	-1.6
CCC(CC)NC(=O)Nc1ccc(F)cc1F	8	0.8
CCCc1cc(=O)[nH]c(=S)[nH]1	-6	5.3&-0.2
CCC1(C)NC(=O)N(/N=C/c2cc(Br)ccc2OC)C1=O (stereo unspecified)	-9	·
C/C=C1\NC(=S)N(Cc2ccccc2)C1=O	4	3.8
COC(=O)c1c(C)oc2ccc(N(C(=O)Oc3ccccc3)S(=O)(=O)c3ccc(C)cc3)cc12	-9	-0.2
CCN1C(=O)C(O)(CC(=O)c2ccc(OC)c(OC)c2)c2ccccc21 (stereo unspecified)	15	-1.2
COc1ccc(/C=C2\Cc3ccccc3C2=O)cc1O	3	·
CN(C(=O)COC(=O)c1ccccc1O)C1CCCCC1	-4	1.2
CC(NC(=O)CN1CCc2ccccc21)c1ccccc1 (stereo unspecified)	-2	-0.9
O=C(Nc1sc2c(c1-c1nc3ccccc3s1)CCCC2)c1sc2ccccc2c1Cl	·	-1.8
COc1cc(/C=C/C(=O)O)cc(S(=O)(=O)N2CCOCC2)c1OC	7	-0.3
CSc1n[nH]c(NS(=O)(=O)c2cccc(C(F)(F)F)c2)c1-c1ccccn1	·	0.0
Cc1cccc(-n2ncc(C(=O)N3CCC(C(N)=O)CC3)c2-n2cccc2)c1	2	·
CCCCCn1c2ccccc2c2nc3ccccc3nc21	15	·
CC(=O)Nc1nnc(S(N)(=O)=O)s1	·	6.1&5.5
Cc1cnc(C(=O)Nc2ccccc2-c2nnn(CC(=O)NC3CCCC3)n2)cn1	15	-2.1
S=c1[nH]nc(Cc2ccccc2)o1	16&10	·
CCCc1cc2c(cc1NC(=O)c1ccccc1SC)OCO2	6	·
COc1cc2c(cc1NC(=O)CSCc1nc(N)nc(Nc3ccccc3C)n1)oc1ccccc12	-9	·
CCN(CC)c1ccc(N=CN2CCOCC2)cc1	-14	·
COC(=O)c1ccc(Cl)cc1NC(=O)c1ccc(F)cc1	·	-0.9
CCCC(NC(=O)c1ccco1)C(=O)O (stereo unspecified)	3	-5.4
C/C(N)=C(/C#N)C(=O)Cn1nnc(-c2ccccc2)n1	-2	·
COc1cccc(C(=O)N2CCCC2)c1	18	-2.5
Cc1nn(C)cc1CN(C)C(=O)c1cc2n(n1)C(C(F)(F)F)CC(c1ccccc1)N2 (stereo unspecified)	34	·
Cc1nc2sccn2c(=O)c1S(=O)(=O)N1CCCC1	9	-11
COC(=O)Cc1c(C(=O)OC)nnn1-c1ccc(Br)cc1	17	·
COC(=O)COc1ccc(/C=C2\C(=O)NC(=S)N(c3ccc(Br)cc3)C2=O)cc1OC	·	9.7
COc1ccc(N(C)S(=O)(=O)c2ccc3c(c2)CC(C)N3C(=O)C2CC2)c(OC)c1 (stereo unspecified)	-4	·
COc1ccccc1NC(=O)C(C)OC(=O)c1ccc(O)cc1 (stereo unspecified)	2	·
CN(C)C(=O)CSc1nnc(-c2ccco2)o1	11	-2.2
CCc1cccc(CC)c1NC(=O)c1cccs1	-9	-1.0
CC(=NC(C)C)C1=C(O)C(C)OC1=O (stereo unspecified)	30	2.0
CC(N=C1CCCc2ccccc2N1)C(=O)O (stereo unspecified)	-9	1.5
Cc1sc2ncnc(NC(C)C(=O)O)c2c1C (stereo unspecified)	7	-5.3
OCCNc1ncnc2scc(-c3ccc(F)cc3)c12	-6	7.1
O=C(CNC(=O)c1ccc(Br)cc1)NC1CC1	-15	·
O=C(Nc1ccccc1C(=O)N1CCCC1)c1cccc(I)c1	-5	-1.2
S=c1sc2ccccc2n1CN1CCOCC1	4	4.0
CCCCc1ccc(NC(=O)C2CC(=O)N(C)C2)cc1 (stereo unspecified)	-1	0.6
COC(=O)c1cc2sccc2n1CCC#N	17	-3.0
COc1cccc(-c2noc(-c3cc(OC)cc(OC)c3)n2)c1	19	1.7

The listing continues.
Molecule	S aureus helic	MgrA DNA FP
COc1cccc(N=C2NN=C(c3ccc(S(=O)(=O)N4CCCCC4)cc3)CS2)c1	8	·
CCCNS(=O)(=O)c1ccc(-n2cnnn2)c(OC)c1	-5	0.6
O=C(COc1ccccc1C(=O)O)NC12CC3CC(CC(C3)C1)C2	-4	-1.1
O=C(Cn1nc(C(F)(F)F)c2c1CCCC2)N1CCCc2ccccc21	1	-0.5
CCOC(=O)c1cnc2cc(-c3ccc(Cl)cc3)nn2c1C	·	-2.0
S=c1nc(Nc2ccccc2)c2ccccc2[nH]1	1	·
CN1C(=C(C#N)C(=O)CN2c3cccc4cccc(c34)S2(=O)=O)N(C)c2ccccc21	-24	·
CC(c1ccccc1)n1c(SCc2cc(=O)oc3cc(O)ccc23)n[nH]c1=O (stereo unspecified)	·	-2.7
Cc1cc(NC(=O)COc2coc(CN3CCc4ccccc4C3)cc2=O)no1	-12	·
COC(CNCc1cc(Cl)c2c(c1)OCCCO2)OC	-3	·
O=C(NCCOc1ccccc1Cl)c1ccccc1Br	17	-1.4
COc1ccc(-c2ocnc2C(=O)NCc2ccccc2)cc1	-16	·
O=C(COC(=O)c1cccc(NS(=O)(=O)c2ccc3[nH]c(=O)c(=O)[nH]c3c2)c1)c1ccccc1	8	·
CC(=O)Nc1ccc(NCC(O)Cn2ccc3ccccc32)cc1 (stereo unspecified)	-12	7.0
O=C(Nc1cccc(-c2cn3cccnc3n2)c1)C1CCCC1	14	-2.0
CC(=O)Nc1ccc(S(=O)(=O)N2CCc3ccccc32)cc1	-19	1.6
CCc1ccc(S(=O)(=O)N2CCCC2C(=O)OC)cc1 (stereo unspecified)	20	0.5
C/C(=N\NC(=O)CSc1nnc(-c2ccccc2)n1-c1ccccc1)c1cccs1	18	·
Cc1cccc(C(=O)c2ccccc2C(=O)O)c1O	-16	-3.6
OCCSc1n[nH]c(-c2ccccc2)n1	-5	-0.8
COc1ccc2c(CC(=O)N(C)CC3COc4ccccc4O3)coc2c1 (stereo unspecified)	-8	·
COc1ccccc1C(=O)C1C(=O)NC2(C)CC1c1cccc(OC)c1O2 (stereo unspecified)	2	·
C=CCn1c(Sc2ncnc3c2cnn3-c2ccccc2)nnc1-c1ccncc1	·	1.8
N#CCCN(/N=C/c1ccc(-c2ccc(Br)cc2)o1)C1=NS(=O)(=O)c2ccccc21	2	-0.9
CCOC(=O)c1c(NC(=O)C(C)Sc2nc3c(cnn3-c3ccc(C)cc3)c(=O)[nH]2)sc2c1CCC2 (stereo unspecified)	-28	·
O=C(N1CCN(c2ccccc2F)CC1)N1c2ccccc2Sc2ccccc21	-23	·
CCn1c(=O)n(-c2ccccc2)c(=O)c2c1c1cc(OC)ccc1n2C	21	·
COc1ccc(-c2nn(-c3ccccc3)cc2CC(=O)O)cc1	10	·
O=C(CSc1ccccc1)N1CCc2ccccc21	·	-1.1
COC(=O)c1c(C)[nH]c(C(=O)CN(C)CC(=O)Nc2c(C)cc(C)cc2C)c1C	30*	·
Cc1cc(C)cc(NS(=O)(=O)c2ccc3c(c2)CC(=O)N3)c1	-8	9.3
O=C(O)c1cc(=O)[nH]c2c(C(F)(F)F)cccc12	·	-1.0
O=C(NCc1ccco1)c1ccc(CS(=O)(=O)c2ccccc2)cc1	13	8.2
Cc1cc(-c2ccccc2N)nc2ccccc12	-3	-3.7
Cc1ccc(C2NCCS2)cc1 (stereo unspecified)	-3	·
c1ccc2c3c(cc(N4CCOCC4)c2c1)OC1(N2CCOCC2)CCCCC1O3 (stereo unspecified)	4	0.9
Cc1sc2ncnc(Sc3nnnn3-c3ccccc3)c2c1C	5	·
Cc1cc2ccccn2c1C(=O)c1cccc(S(=O)(=O)N(C)C)c1	-9	-0.7
O=C(NN=C1C2CC3CC(C2)CC1C3)c1ccncc1	-9	0.6
CCSc1nnc(NC(=O)c2cccn(OCc3cccc(Cl)c3)c2=O)s1	5	-1.3
CCOc1ccc(NC(=O)c2cc3n(n2)CCCN(Cc2ccccc2)C3=O)cc1	12	·
Cc1nc2c(Cl)c(Cl)c(Cl)c(N3CCOCC3)c2[nH]1	·	1.2
C=CCn1sc(=N)c(C#N)c1N	-10	·
CC(C)(C)c1ccc(C(=O)N2CCC(NC(=O)c3ccccc3)CC2)cc1	·	-1.4
COc1ccc(C(=O)Nc2ccc3oc(-c4ccc(Br)cc4)nc3c2)cc1OC	·	-0.3
N#Cc1cccc(NC(=O)COC(=O)c2ccc(Cl)cc2N)c1	4	·
FC(F)(F)c1cccc(CN2CCSCC2)c1	-6	-1.3
CCCCCC(=O)/C=C/C=C\C/C=C\C/C=C\CCCC(=O)O	·	1.4
CCn1c(C)c(P(=O)(N2CCOCC2)N2CCOCC2)c2ccccc21	-13	·
Cc1cccc(N/C=C/C(=O)c2cccs2)c1C	·	-0.8
COc1cc2c(cc1OC)CN(S(=O)(=O)c1ccc3c(c1)OCCCO3)CC2	·	0.8
O=C(Nc1cc(C(F)(F)F)cc(C(F)(F)F)c1)c1c(F)cccc1Cl	·	-2.1
Cc1cc(/C=C(\C#N)C(=O)NCc2cccs2)c(C)n1C1CCCC1	-1	2.0
Cn1c2c(c(=O)n(C)c1=O)CN(CCCCCCO)CN2	·	2.0
Nc1cc(C(=O)OCC(=O)N2CCCc3ccccc32)ccc1Cl	-10	-1.2
O=C(CSc1nnc(COc2ccccc2Cl)o1)NC(=O)c1ccccc1	18	·
Cc1ccccc1NC(=O)N1CCCC(c2nc(-c3ccc(F)cc3)no2)C1 (stereo unspecified)	-20	1.6
N#CC(C(=O)Nc1ccccc1)C(=O)c1cccs1 (stereo unspecified)	·	0.2

An excerpt (hit frequency here may not be typical).
